Rango complex inh: Rango-importin beta binding inhibition; Potency, µM (highest dose often 92.2 µM), for inactives: top-dose inhibition of complex formation; 340,000 compounds, 0.031% hits; Q14974; Rango CFP/YFP FRET sensor + importin beta, 45 min; active = rising FRET ratio curve, often small or poorly fitted; inconclusive = mostly compound fluorescence or quenching in the first reads; inactive = flat curves in all reads;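 further: potency means the concentration at half of the fitted maximal effect; 0% = DMSO wells and 100% = buffer wells lacking importin beta; nearly all actives have a fitted effect of over 15% in size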
Target sequence (Q14974 whole entry, looked up): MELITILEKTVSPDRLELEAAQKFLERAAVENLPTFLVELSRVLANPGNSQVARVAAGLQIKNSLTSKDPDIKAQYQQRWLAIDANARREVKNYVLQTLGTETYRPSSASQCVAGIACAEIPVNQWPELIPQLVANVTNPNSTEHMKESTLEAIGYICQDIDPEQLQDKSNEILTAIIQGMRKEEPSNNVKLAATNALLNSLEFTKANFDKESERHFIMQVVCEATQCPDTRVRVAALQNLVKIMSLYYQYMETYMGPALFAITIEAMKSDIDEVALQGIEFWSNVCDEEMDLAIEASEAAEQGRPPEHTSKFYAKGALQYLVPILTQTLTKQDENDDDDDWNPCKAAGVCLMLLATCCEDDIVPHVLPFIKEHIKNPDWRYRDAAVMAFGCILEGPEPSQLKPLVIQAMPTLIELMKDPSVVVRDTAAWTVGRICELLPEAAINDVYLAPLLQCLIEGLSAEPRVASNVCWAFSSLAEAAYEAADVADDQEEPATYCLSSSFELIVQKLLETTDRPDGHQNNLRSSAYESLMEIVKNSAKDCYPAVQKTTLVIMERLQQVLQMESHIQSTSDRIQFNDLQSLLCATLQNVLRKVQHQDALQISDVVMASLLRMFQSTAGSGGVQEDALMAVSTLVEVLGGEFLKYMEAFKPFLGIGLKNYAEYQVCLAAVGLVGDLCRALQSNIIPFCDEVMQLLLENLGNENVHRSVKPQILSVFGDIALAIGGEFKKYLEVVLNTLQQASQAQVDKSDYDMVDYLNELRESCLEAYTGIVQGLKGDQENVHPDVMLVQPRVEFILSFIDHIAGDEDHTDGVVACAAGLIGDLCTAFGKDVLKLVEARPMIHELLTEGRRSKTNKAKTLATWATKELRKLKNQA
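FRET biosensor Rango (snurportin 1 IBB between N-terminal EYFP and C-terminal Cerulean), 50 nM in PBS/1 mM DTT/0.02% Tween-20/0.1% BSA, preincubated 5 min RT with compound; 0.125 microM importin beta added, 45 min RT, CFP/YFP FRET ratio read.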
miR-21 reporter: raises the signal of a miR-21 reporter | Potency, µM (top dose mostly 38.3 µM), for the others: at the highest dose reporter change, positive = more light | HeLa miR-21 FLuc reporter, luciferase, 48 h | 340,000 tested, under 10 active; active = well fitted rising curve with a large enough effect; inconclusive = small, poorly fitted or top-dose-only effect; inactive = no such curve, though single readings can be large or run the other way;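 further: % of control where 0% means no effect; miR-21 action dims this reporter so a rising signal means less miR-21 action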
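HeLa cells stably expressing CMV-driven firefly luciferase with a downstream miR-21 binding sequence, endogenously expressing miR-21, were treated with titrations (up to about 40uM final) for 48 hours at 37 degree Celsius. Luciferase luminescence was read after lysis.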
GLA inh pH 4.5: blocks human alpha-galactosidase A at pH 4.5; 230,000 tested, under 10 active; purified enzyme, 4-MU-alpha-Gal fluorescence, pH 4.5; activity change, negative = inhibition, % at 105 µM; P06280; inconclusive = small, poorly fitted or top-dose-only inhibition, or a rising curve; inactive = flat fitted curve, though single readings scatter; no compound was filed as active;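 further: 0% = full activity with enzyme and -100% = basal without enzyme; dose as in the result columns while the protocol names 77 µM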
Rango dissoc inh: inhibitors of RanGTP-induced Rango-importin beta complex dissociation; 340,000 compounds, 0.071% hits; Biochemical FRET Rango-importin beta, RanGTP-induced dissociation; Potency, µM (series often up to 46.1 µM), without a hit: at the highest dose activity change, negative = inhibition; AID 540253; active means falling FRET ratio curve, often poorly fitted, with flat reads before Ran was added; inconclusive means other falling curves, or compound fluorescence or quenching; inactive means flat or rising ratio curve;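 further: potency means the concentration at half of the fitted maximal effect; % of control where 0% means no effect; nearly all actives have a fitted effect of over 45% in size; -100% = wells without RanGTP and RCC1; the record marks most hits as doubtful in a second field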
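FRET read at 45 min, room temperature: inhibitors block the CFP/YFP signal rise when RanGTP (0.6 uM Ran, 2 mM GTP, 0.2 uM RCC1) frees Rango (0.1 uM) from importin beta (0.25 uM). Pre-read after 5 min compound exposure flags interference.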
Active calls of the source: *; ? = inconclusive; / = no result given; & = joins results of further samples. Only part of the results is shown. The share of hits here may be higher or lower than overall.

SMILES	Rango complex inh	miR-21 reporter	GLA inh pH 4.5	Rango dissoc inh
CC(C)(C)OC(=O)N(CCc1ccccc1)Cc1cccc(OCc2cccc(NC(=O)C3CCCC3)c2)c1	0.0%	/	/	-1%
CN(C)c1ccc(-c2nc3ccccc3c(=O)[nH]2)cc1	?	4%	2	-28%
CC(C)=CCC/C(C)=C/CNC(=O)C[C@H]1C[C@H](C(=O)N(C(C)C)C(C)C)[C@@]2(C)c3[nH]c4cc(-c5ccco5)ccc4c3CCN2C1=O	-2.6%	/	/	-10%
COc1ccc(C)cc1N/C(N)=N/c1nc(C)cc(C)n1	1.6%	20%	5	11%
Cc1cc(C)n(-c2ccc(C(=O)OCC(=O)c3ccc(Br)s3)cc2)n1	?	-5%	-2	-11%
Cc1ccc(/C=N/NC(=O)CCCOc2ccc(Cl)cc2Cl)cc1	0.3%	25%	4	20%
COCC1CCN(C(=O)c2cc(COc3ccc(OC)c4ccccc34)on2)C1 (stereo not given)	-0.2%	/	/	-3%
COc1cc(C2Oc3ccccc3C=C2[N+](=O)[O-])cc(OC)c1OC (stereo not given)	1.4%	?	7	0%
CCN1CCN(C(=O)C2CCC(CNS(=O)(=O)c3ccc(NC(C)=O)cc3)CC2)CC1 (stereo not given)	2.2%	0%	/	3%
N#Cc1nc(Cc2cccc3ccccc23)oc1NCc1ccco1	-0.9%	-11%	4	-7%
CC(=O)N1CCc2cc(S(=O)(=O)N3CC(C)CC(C)C3)ccc21 (stereo not given)	2.0%	2%	/	-10%
CCOc1ccccc1C(=O)N[C@H](C(=O)OCc1cc(=O)oc2cc(C)ccc12)C(C)C	5.0%	-14%	-1	-4%
COc1ccc(C2=NOC3(CC(=O)N(c4ccc(F)cc4)C3=O)C2)cc1 (stereo not given)	5.1%	-1%	?	-6%
Cc1ccc(CNC(=O)c2nn(C)c3c2CS(=O)(=O)c2ccccc2-3)cc1	3.1%	-2%&5%	/	12%
O=C(CCn1c(=S)[nH]c2ccccc2c1=O)Nc1cccc(Cl)c1	1.0%	1%	/	2%
COc1ccc(O)c(C(=O)CC(=O)c2ccccc2)c1	/	-1%	-9	/
Cc1nc(N2CCC(C)CC2)c2nnn(Cc3ccccc3)c2n1	0.0%	-20%	-3	-6%
CN(C)CC(=O)Nc1cc(C(F)(F)F)ccc1Cl	-2.8%	-5%	-4	1%
CCOC(=O)/C(=C/c1ccc(Cl)cc1)NC(=O)c1ccco1	0.1%	-3%	-2	-2%
Cc1ccc(/C=C/C(=O)NC(=S)N2CCN(C)CC2)cc1	-0.4%	-13%	-2	3%

Seven entries picked at random from the list so far:
SMILES	Rango complex inh	miR-21 reporter	GLA inh pH 4.5	Rango dissoc inh
Cc1ccc(/C=N/NC(=O)CCCOc2ccc(Cl)cc2Cl)cc1	0.3%	25%	4	20%
N#Cc1nc(Cc2cccc3ccccc23)oc1NCc1ccco1	-0.9%	-11%	4	-7%
Cc1cc(C)n(-c2ccc(C(=O)OCC(=O)c3ccc(Br)s3)cc2)n1	?	-5%	-2	-11%
CCOC(=O)/C(=C/c1ccc(Cl)cc1)NC(=O)c1ccco1	0.1%	-3%	-2	-2%
Cc1ccc(/C=C/C(=O)NC(=S)N2CCN(C)CC2)cc1	-0.4%	-13%	-2	3%
CC(C)(C)OC(=O)N(CCc1ccccc1)Cc1cccc(OCc2cccc(NC(=O)C3CCCC3)c2)c1	0.0%	/	/	-1%
CC(C)=CCC/C(C)=C/CNC(=O)C[C@H]1C[C@H](C(=O)N(C(C)C)C(C)C)[C@@]2(C)c3[nH]c4cc(-c5ccco5)ccc4c3CCN2C1=O	-2.6%	/	/	-10%

(next part)
SMILES	Rango complex inh	miR-21 reporter	GLA inh pH 4.5	Rango dissoc inh
CCOc1ccccc1/C=N/NC(=O)CNC(=O)COc1ccccc1	3.0%	0%	1	18%
Cc1cc2cc(CNC(=O)CCC(=O)O)ccc2[nH]1	-0.3%	-6%	8	-1%
O=c1oc2ccccc2c(NC(c2ccccc2)c2ccccc2)c1[N+](=O)[O-]	-6.4%	-8%	-6	-4%
CC(C)(C)[C@H]1C=C(C(N)=O)O[C@@H](OCc2ccc(CO)cc2)C1	-3.4%	-15%	0	-17%
Cc1ccccc1NC(=O)c1nn(C)c2c1CS(=O)(=O)c1ccccc1-2	-0.2%	-5%	/	10%
O=C(NCCC1=CCCCC1)C(=O)NCC(c1ccco1)N1CCN(c2ccccc2F)CC1 (stereo not given)	?	-4%	-2	-5%
COC(=O)c1ccc(NS(=O)(=O)NC(=O)c2cn(C)c3ccccc23)cc1	0.2%	-9%	/	14%
COc1ccc(-c2csc(NC(=S)NC(=O)c3cccs3)n2)cc1Br	3.2%	-3%	-9	7%
Cc1cc([N+](=O)[O-])nn1CCCC(=O)Nc1cc(Oc2ccc(F)cc2)cc([N+](=O)[O-])c1	2.7%	-10%	-3	6%
CCOC(=O)C(=O)/C(=C\N(C)C)c1onc(-c2c(F)cccc2Cl)c1C(=O)OC	3.7%	-1%	0	-23%
CN(/C(=N\S(=O)(=O)c1ccccc1)c1ccccc1)c1ccc(O)cc1	-1.3%	-2%	-13	1%
COc1ccccc1CCNC(=O)c1ccc(C)o1	-0.8%	-24%	6	1%
O=C(CC1Oc2ccccc2NC1=O)NCc1ccccc1 (stereo not given)	3.0%	-5%	-2	2%
COc1cccc(NC(=O)Nc2ccc3nsnc3c2)c1	3.3%	9%	-1	-1%
CC(=O)OC[C@H]1O[C@@H](Sc2cccc3cccnc23)[C@H](OC(C)=O)[C@@H](OC(C)=O)[C@@H]1OC(C)=O	-0.3%	8%	0	-16%
Cc1ccc(NC(=O)CCS(=O)(=O)c2ccc3c(c2)NC(=O)C(C)S3)nc1 (stereo not given)	-0.2%	5%	/	-12%
CCOC(=O)c1nnc(-c2ccc(C)cc2)nc1Sc1cccc(Cl)c1	-0.7%	-5%	7	16%
O=C(COc1ccc(S(=O)(=O)N2CCOCC2)cc1)NCc1ccccc1	0.3%	1%	/	-14%
CN(C)S(=O)(=O)c1cccc(-c2nn(-c3ccccc3)cc2/C=C(\C#N)c2nc3ccccc3[nH]2)c1	?	-5%	-6	?
CSCC[C@H](NC(=O)C1CCN(S(=O)(=O)c2ccc(C)cc2C)CC1)c1nc2ccccc2[nH]1	-0.2%	/	/	1%
COc1ccc(C(c2oc(CO)cc(=O)c2O)c2oc(CO)cc(=O)c2O)cc1OC	0.0%	1%	-10	-2%
N#C/C=C(/c1ccc(F)cc1)N1CCOCC1	-3.7%	-4%	13	9%
c1ccc2c(N3CCCCCC3)nc(-c3ccncc3)nc2c1	4.4%	19%	3	14%
C=C1C(=O)OC2C1C(OC(=O)C(C)=CC)CC(=C)C1C(O)C3OC3(C)C21O (stereo not given)	?	/	/	-8%
CC1(C)Cc2c(sc3ncnc(N)c23)CO1	-1.2%	-5%	10	7%
O=C(CSc1n[nH]c(C2CCCC2)n1)NC1CCCC1	1.6%	2%	4	0%
CN1CCN(C(=O)/C(=C/c2cccs2)NC(=O)c2ccco2)CC1	-1.7%	-2%	9	-20%
COC(=O)c1ccc(NC(=O)CN2CCN(c3ccccc3)CC2)cc1	0.8%	-8%	-1	5%
CC(=O)Nc1ccc(S(=O)(=O)NNC(=O)CCc2ccccc2)cc1	-1.2%	-4%	/	35%
Cc1oc(-c2cccc(Cl)c2)nc1CN1CCC(C(=O)NCC2CCCO2)CC1 (stereo not given)	-0.1%	0%	1	-14%
Cc1ccc(C(=O)NCCCc2ccccc2)c(C)c1	-0.2%	-41%	6	5%
O=C(O)CCNC(=O)/C(=C\c1ccco1)NC(=O)c1ccco1	0.2%	-3%	/	-10%
COc1cccc(-c2ccc(SCc3ccccn3)nn2)c1	0.1%	-53%	-4	-14%
Cc1sc2ncnc(NCC(c3ccco3)N3CCCC3)c2c1C (stereo not given)	3.3%	-9%	-4	20%
CC(C)(O)CN(C(=O)c1ccccc1)C1CCCCC1	0.7%	/	/	1%
C=CCNC1=C(Cl)C(=O)c2ccccc2C1=O	3.8%	1%	-15	1%
Cc1cc(C(=O)OCC(=O)Nc2cc(C)on2)c2ccccc2n1	-2.6%	0%	-2	-2%
OCCCNc1c2c(nc3cc(-c4ccc(Cl)cc4)nn13)CCC2	4.4%	-31%	-17	5%
CC1CC(C)CN(c2ncnc3c2cnn3Cc2ccc(Cl)cc2)C1 (stereo not given)	0.1%	-1%	-5	1%
CCCCc1c(C)nc2ccc(C(=O)OCC)cc2c1Cl	-2.5%	-1%	8	-19%
O=C1C(=Cc2cccn2-c2ccccc2)C(=O)c2ccccc21	?	-2%	5	?
Cc1ccc(S(=O)(=O)N2CCOCC2)cc1NC(=O)COc1ncnc2ccccc12	-4.1%	0%	-1	?
Cc1ccc(S(=O)(=O)n2nc(C)c(S(=O)(=O)N3CCCCC3)c2C)cc1	9.2%	7%&-2%	/	-5%
COc1ccc2c(Cl)c(-c3nnc4n3CCCCC4)sc2c1	-0.4%	-37%	3	27%
C=CCOc1ccc(/C=N/NC(=O)c2cc3c(OC)cc(OC)cc3[nH]2)cc1	-4.0%	3%	/	11%
O=[N+]([O-])c1cc(S(=O)(=O)N2CCCC2)ccc1O	0.0%	0%	-3	-10%
O=C(NCCN1CCN(C(=O)c2cc3ccccc3oc2=O)CC1)c1cc2ccccc2oc1=O	?	-2%	-23	-24%
CCCCc1ccc(NC(=S)NN2CCOCC2)cc1	0.9%	-35%	0	-6%
Cc1cccc(NS(=O)(=O)c2ccc(C)c(C(=O)N(C)C)c2)c1	-0.9%	/	/	1%
Cc1noc(NS(=O)(=O)c2ccc(NC(=O)CSc3ncccn3)cc2)c1C	-0.1%	-1%	11	11%

Additional records follow:
SMILES	Rango complex inh	miR-21 reporter	GLA inh pH 4.5	Rango dissoc inh
COc1ccc(N=Cc2c(OC)ccc3ccccc23)cc1	?	/	/	-5%
CC(=O)NNc1nc2ccccc2s1	-3.2%	0%	3	12%
O=C(/C=C/c1ccco1)NCc1ccc(F)cc1	-1.6%	-7%	7	-8%
O=C(O)C1Cc2[nH]cnc2C(c2ccc(F)cc2)N1 (stereo not given)	-1.4%	2%	-1	?
CCC1CCCCN1CCCNC(=O)c1cn(CC)c2ccc(S(=O)(=O)N(C)C3CCCCC3)cc2c1=O (stereo not given)	-0.1%	9%&-5%	/	0%
CCOC(=O)N1CCc2c(sc3c2c(=O)n(Cc2ccccc2)c(=O)n3CC(=O)NCC2CCCO2)C1 (stereo not given)	0.0%	3%	/	10%
CC(=O)N(c1ccccc1)c1nc2ccccc2s1	4.6%	/	/	0%
CCCCc1c(O)nc(SCC(=O)Nc2cccc3ccccc23)n(-c2ccccc2OC)c1=O	-1.9%	5%	/	-14%
COc1ccc(C2(CNS(=O)(=O)c3ccccc3)CCOCC2)cc1	5.0%	-1%	2	-15%
CCOc1ccc(C(=O)Cc2ccc3oc(C(=O)O)cc3c2)c(O)c1	-0.6%	-2%	-4	2%
COc1ccc2[nH]c(CN3CCC(CO)(CCOc4ccccc4)CC3)c(C)c2c1	-2.8%	23%	-1	7%
CCc1cc(C)cc(OCCNC(=O)c2cncc(Br)c2)c1	0.0%	9%	2	20%
Cc1csc(NC(=O)CCC(=O)c2cccs2)n1	-0.2%	-18%	3	-6%
NS(=O)(=O)c1cccc(NC(=O)c2cc(=O)c3ccccc3o2)c1	-1.7%	-16%	/	-12%
CCN(CC)CCNC(=O)c1ccc(NC(=O)COc2ccc3c(c2)CCC3)cc1	-1.1%	/	/	12%
Cn1nnc(NC(=S)NC(=O)c2ccc(-c3ccc(Br)cc3)o2)n1	-0.3%	-6%	-4	-2%
Cc1ccc(-c2nn(-c3ccccc3)cc2C2CC(c3ccccc3)=NN2C(=O)CCC(=O)O)cc1 (stereo not given)	0.3%	-5%	-12	4%
CCCOC(=O)c1c(NC(=O)C2CCCO2)sc(C(=O)OC)c1C (stereo not given)	0.2%	-2%	2	3%
CN(CCOc1ccc(Cl)cc1)Cc1cccc(S(=O)(=O)N(C)C)c1	5.3%	22%	/	-8%
COc1ccc(/C=N/NC(=O)C(=O)NCc2cccnc2)cc1	-2.1%	-2%	2	22%
COc1cc(C(=O)NCc2cn3ccccc3n2)cc(OC)c1OC	1.0%	2%	-2	-7%

High-throughput results (PubChem BioAssay)
